Bioassay records deposited in PubChem BioAssay by National Center for Advancing Translational Sciences (NCATS).
TRPML1 blocker: human mucolipin-1 channel inhibition | activity change, negative = inhibition, % (no concentration beside the values) | AID 624415 | 390,000 tested, 0.02% active | Q9GZU1 | TRPML1-inducible cells, Ca2+ dye fluorescence, FDSS; stronger effect = lower value; inhibition of EC80 agonist-evoked calcium signal; in the data active means activity change below about -50%; inconclusive means about -30% to -50%; inactive means above about -30%;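 note: stimulus is agonist 54-4 at its EC80 concentration; % is set by controls: 0 for no effect and ±100 for the full control effect; compound concentration not given in the record; the text of the record puts the active cut at -80%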
Target sequence (Q9GZU1 whole entry, looked up): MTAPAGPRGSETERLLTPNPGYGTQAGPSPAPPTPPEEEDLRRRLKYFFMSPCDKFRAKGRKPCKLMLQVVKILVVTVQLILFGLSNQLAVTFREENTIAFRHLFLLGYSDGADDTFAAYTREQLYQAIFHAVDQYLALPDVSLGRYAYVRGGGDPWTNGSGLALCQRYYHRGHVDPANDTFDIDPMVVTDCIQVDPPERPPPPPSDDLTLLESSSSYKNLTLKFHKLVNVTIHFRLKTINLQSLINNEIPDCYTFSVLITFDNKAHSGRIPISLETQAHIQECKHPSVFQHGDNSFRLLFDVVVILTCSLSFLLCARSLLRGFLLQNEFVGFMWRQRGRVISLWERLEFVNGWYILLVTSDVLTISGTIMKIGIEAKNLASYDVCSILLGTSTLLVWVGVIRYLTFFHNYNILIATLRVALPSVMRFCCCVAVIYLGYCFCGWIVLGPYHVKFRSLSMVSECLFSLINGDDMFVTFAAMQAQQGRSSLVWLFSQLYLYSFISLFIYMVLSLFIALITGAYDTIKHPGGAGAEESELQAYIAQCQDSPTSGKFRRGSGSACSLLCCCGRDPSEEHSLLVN
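Calcium fluorescence in TRPML1-DL cells induced overnight with Tet: a 110 s read after compound pin addition, then a 110 s antagonist read after challenge with 54-4 at 4 uM final (EC80).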
TRPML1 agonist: activates the human TRPML1 channel | TRPML1-expressing cells, Ca2+ dye fluorescence, FDSS; host cell line not named in the record; reference of the full effect not given here | activation, % (no concentration beside the values) | 410,000 tested, 0.12% active; in the data active = activation above about 50%; inconclusive = about 30% to 50%; inactive = below about 30%; note: 0% is about no effect; the text of the record puts the active cut at 80%
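Tetracycline-induced TRPML1-DL cells are seeded and incubated overnight before loading with a no-wash Ca2+ dye and quencher. Agonist activity is taken from the 110 s fluorescence read following compound pin-transfer on an FDSS, before EC80 54-4 challenge.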
D2 agonist: activates the human D2 dopamine receptor; P14416; DiscoveRx PathHunter D2 beta-arrestin, luminescence, 90 min; 100% = 57 uM dopamine signal; activation, % (no concentration beside the values); 360,000 tested, 0.084% active; in the data active = activation above about 40%; inconclusive = about 15% to 40%; inactive = below about 15%; note: compound concentration not given in the record; the text of the record calls up to 30% inactive
Target sequence (P14416 whole entry, looked up): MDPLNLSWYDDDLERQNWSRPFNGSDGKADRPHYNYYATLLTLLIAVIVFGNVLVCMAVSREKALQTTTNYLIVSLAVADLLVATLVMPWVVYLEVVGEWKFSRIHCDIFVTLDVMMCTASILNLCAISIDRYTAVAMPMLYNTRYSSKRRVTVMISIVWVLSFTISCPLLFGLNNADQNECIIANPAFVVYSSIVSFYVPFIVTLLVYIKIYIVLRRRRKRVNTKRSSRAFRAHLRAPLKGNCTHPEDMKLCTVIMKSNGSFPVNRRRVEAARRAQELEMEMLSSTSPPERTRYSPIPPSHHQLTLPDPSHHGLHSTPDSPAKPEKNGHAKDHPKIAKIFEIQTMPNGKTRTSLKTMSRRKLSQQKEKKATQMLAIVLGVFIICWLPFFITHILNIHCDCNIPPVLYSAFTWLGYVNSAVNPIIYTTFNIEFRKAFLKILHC
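Agonist mode: compounds alone added to overnight-plated D2 PathHunter cells for 90 min at 37 C, with 57 uM final dopamine (EC100) defining full response. Beta-arrestin recruitment detected by chemiluminescent reagent, read after 1 h at ambient temperature.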
D2 PAM: potentiates the human D2 dopamine receptor allosterically | P14416 | DiscoveRx D2 beta-arrestin cells, luminescence, 90 min; 100% = 57 uM dopamine signal | potentiation, % (test concentration not listed) | 360,000 tested, 0.23% active; active = potentiation of 50% or more; inconclusive = 30% to 50%; inactive = 30% or less;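 note: compound concentration not given in the record; tested on top of an EC20 dose of dopamine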
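PathHunter beta-arrestin assay in DiscoveRx D2 cells. Compounds were added with an EC20 of dopamine (50 nM final) for 90 min at 37 deg C. Luminescence was read 1 h after detection reagent, with 57 uM dopamine as the EC100 control.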
PINK1 expr mod: PINK1 expression modulation; PINK1 immunofluorescence, high-content cytometry, 24 h; Potency, µM (highest dose often 76.6 µM), inactives show at the top dose activation (PINK1 increase), hits mostly activators; 410,000 tested, 0.2% active; active = well fitted activation curve with a large enough effect; inconclusive = small, poorly fitted or top-dose-only effect; inactive = flat fitted curve, though single readings scatter; cell line not stated here;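 note: potency is the fitted concentration of half-maximal effect; % of control where 0% means no effect; nearly all actives have a fitted effect of over 65% in size; a mitochondrial uncoupler was the plate control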
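Stable cell line, 250 cells/well, 12 h attachment; compounds pinned at 5 concentrations, 24 h; CCCP control. Fixed with nuclear dye, primary antibodies 12 h at 10 degrees C, secondary plus cell stain; laser-scanning cytometer read.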
Six1-Eya2 inh: Six1/Eya2 interaction inhibition; Q15475+O00167; AlphaScreen GST-Six1/His-Eya2 binding, biochemical; stronger effect = lower value; control for the full effect not named in the record; activity change, % (no concentration beside the values); 360,000 tested, 0.56% active; in the data active = activity change below about -65%; inconclusive = about -30% to -65%; inactive = above about -30%; note: % is set by controls: 0 for no effect and ±100 for the full control effect; compound concentration not given in the record
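AlphaScreen with GST-Six1 and His-Eya2 (5X mix: 250 nM and 500 nM), glutathione donor and nickel acceptor beads; buffer 50 mM Tris pH 8.0, 300 mM NaCl, 1 mM TCEP; 1 h at 37 C in the dark.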
Starred values were filed as active, the others as inactive; u = inconclusive; x = no result given; [ ] = remark or other dose. An unsorted share of the library. Share with any hit: about 1%.

# | SMILES | TRPML1 blocker | TRPML1 agonist | D2 agonist | D2 PAM | PINK1 expr mod | Six1-Eya2 inh
1 | COc1cc(C(O)c2nc(-c3cnn(C)c3)cs2)ccc1F (configuration not stated) | x | -0.4 | 3.2 | 21 | 0.2% | 5
2 | CN(C)/C=N/S(=O)(=O)c1cccn1-c1ncc(C(F)(F)F)cc1Cl | -7 | -0.5 | -1.7 | 3 | 1.0% | 4
3 | O=C(Nc1ccc(F)cc1)c1cc(Cl)sc1Cl | -21 | 0.5 | 5.9 | 10 | 1.1% | 8
4 | Cc1cccc(C)c1NC(=S)Nc1ccc(Cl)c(Cl)c1 | 35 | -1.1 | 1.0 | -2 | 22% | 4
5 | CC(C)(C)OC(=O)N1CCC(C(=O)N[C@@H](Cc2ccccc2)C(=O)O)CC1 | 27 | -0.8 | -3.7 | -8 | 4.7% | -5
6 | Cc1ccc(NC(=O)c2ccccc2-c2ccc(C(F)(F)F)cc2)cc1S(=O)(=O)N1CCOCC1 | 61 | -0.5 | -1.9 | -1 | 3.9% | 3
7 | O=C(Oc1cccc(/C=N/Nc2nc(N3CCOCC3)nc(N3CCOCC3)n2)c1)c1ccco1 | 8 | -0.2 | -3.1 | -14 | -0.6% | -1
8 | CC(C(=O)NC1CCCC1)N(C(=O)c1snc(C(N)=O)c1N)c1ccc2c(c1)OCCO2 (configuration not stated) | 9 | 0.1 | -4.2 | -10 | -3.6%[38.3 µM] | 0
9 | Cc1oc(-c2cccs2)nc1CN1CCC(C(=O)N2CCCC2)CC1 | 7 | 0.1 | -3.9 | -11 | -0.9% | -1
10 | C=CCOC(=O)CCCC(=O)NC1CCCCC1 | -24 | 1.2 | -3.4 | -23 | -1.2% | 10
11 | O=C(COC(=O)Cc1ccc(S(=O)(=O)N2CCOCC2)s1)NCc1ccccc1 | -4 | 0.7 | -2.4 | -2 | -0.7% | 2
12 | Cc1cc(C(=O)COC(=O)c2cccnc2Cl)c(C)n1C | 5 | 1.5 | 5.8 | 0 | 0.8% | -13
13 | COc1cc2c(cc1OC)C(C)N(C(=O)c1nccnc1C(=O)O)CC2 (configuration not stated) | 0 | 0.5 | -0.8 | -3 | 2.8% | 6
14 | CCc1nonc1NC(=O)c1oc2c(C)c(C)ccc2c1C | 43 | 2.2 | -0.7 | -6 | 0.9% | 1
15 | CC(=O)N/C(=C/c1ccc(Cl)cc1)C(=O)NCCc1c[nH]c2ccccc12 | -2 | -0.4 | -1.0 | -11 | -1.4% | -9
16 | NC(=S)Nc1cccc(F)c1 | -2 | -0.4 | -3.1 | -10 | -1.5% | 7
17 | CSc1nnc(C2CCCN2)n1C (configuration not stated) | 6 | -0.1 | -4.1 | 8 | -1.0% | u
18 | Oc1csc(Cc2nc(-c3ccc(-c4ccccc4)cc3)cs2)n1 | -3 | -0.5 | -1.9 | -12 | -1.6% | 0
19 | CCOC(=O)C1=CN(Cc2cccc(F)c2)S(=O)(=O)NC1c1cccc(OC)c1 (configuration not stated) | 1 | 0.9 | -1.0 | x | -0.9% | 1
20 | COc1ccc(C(=O)CSc2nc(=O)n(Cc3cccnc3)c3c2CCC3)cc1 | 3 | 0.0 | 1.8 | -6 | -1.0% | 0
21 | CN(C)CCNC(=O)c1cccc(-c2cc(NC=O)c3ncc(-c4cccc(C(F)(F)F)c4)n3c2)c1 | x | -0.5 | -2.4 | -9 | -1.1% | -11
22 | CCc1ccc(C(C(=O)NCc2ccc(OC)cc2)N(CCOC)C(=O)Cc2cccs2)cc1 (configuration not stated) | 13 | 4.1 | -4.3 | -11 | x | -4
23 | CCOC(=O)N1CCC(N2C(=O)c3ccccc3C2Nc2cccnc2)CC1 (configuration not stated) | 8 | 1.7 | 6.7 | 15 | 1.7% | -2
24 | COc1ccc(-c2nc(CN3CCN(c4ncnc5ccccc45)CC3)c(C)o2)c(OC)c1 | 1 | 3.8 | 1.3 | -7 | -1.5% | -7
25 | C(=N\N(c1ccccc1)c1ccccc1)/c1ccc2c(c1)OCO2 | -24 | 2.0 | -4.3 | -6 | 8.4%[38.3 µM] | 3
26 | CCOC(=O)c1ccc(Oc2nc(OC)nc(N(C)C)n2)cc1 | 5 | -0.4 | -3.8 | -7 | -2.5% | 0
27 | Cc1cc(NC(=O)CCC(=O)N(Cc2ccccc2)C2(C(=O)NC3CCCCC3)CCCC2)no1 | -27 | 2.9 | 9.9 | -3 | -1.3% | -1
28 | O=C(N/N=C/c1ccc([N+](=O)[O-])cc1)c1ccc(NS(=O)(=O)c2cccs2)cc1 | 9 | -1.9 | -2.4 | 1 | -0.4% | -28
29 | Cc1csc(SC(C)C(=O)NC2CCCCC2C)n1 (configuration not stated) | 3 | -1.1 | -2.1 | -3 | -0.9% | -4
30 | COC(=O)c1ccc(CNC(=O)c2ccc(OC)c(S(=O)(=O)NC3CCCC3)c2)cc1 | -4 | -0.8 | 7.0 | -4 | 1.5% | 2
31 | Cc1cccc(N(C(=O)CNC(=O)c2ccco2)C(C(=O)NC2CCCC2)c2cccnc2)c1C (configuration not stated) | 6 | 1.3 | 6.3 | 3 | 8.1% | -3
32 | CCOC(=O)CCC(=O)Nc1cc(S(=O)(=O)N2CCOCC2)ccc1N1CCCCC1 | -12 | -0.4 | 0.0 | -1 | 1.0% | -3
33 | Cc1oc2ccc(NS(=O)(=O)c3ccc(C(C)(C)C)cc3)cc2c1C(=O)Nc1ccccc1 | 28 | 2.2 | -1.5 | 21 | 26% | -7
34 | CC(=O)Nc1ccc(C(=O)Nc2cccc(S(=O)(=O)NC3=NCCC3)c2)cc1 | 3 | -0.5 | -2.3 | 5 | 0.3% | 0
35 | COc1ccc(/C=C(\NC(=O)c2ccc(OC)cc2)C(=O)Nc2cccc(C(=O)O)c2)cc1 | -2 | 0.6 | 0.2 | -3 | 4.7% | -8
36 | CC(C)OC(=O)c1cc(C(=O)c2cc(Cl)ccc2O)coc1=N | 0 | 0.0 | -0.2 | 1 | 3.1% | 11
37 | O=C(CSc1nnc2ccccn12)NC(=O)c1ccccc1 | -6 | -0.1 | 1.3 | -3 | 2.6% | 3
38 | CCN(CC)C(=O)c1ccc(-c2ccccc2)cc1 | -8 | 1.0 | 1.0 | -9 | 1.8% | 11
39 | CN(Cc1ccccc1Br)C(=O)CSc1nnnn1C1CC1 | 31 | -0.9 | -2.5 | 3 | 0.6% | 9
40 | O=C(COC(=O)c1ccncc1)NCc1ccccc1 | 12 | -1.0 | -0.7 | -3 | -0.1% | -1
41 | O=C(/C=C/c1ccccc1)NC(NC(=S)Nc1cc(Cl)ccc1Cl)C(Cl)(Cl)Cl (configuration not stated) | -7 | 3.8 | 1.4 | -5 | u | 1
42 | CN(CC(=O)Nc1cccc(F)c1)CC(=O)N1CCCCC1 | -20 | -0.1 | 8.3 | -3 | -0.6% | 1
43 | S=C1NC[C@H](c2ccccc2)N1CCCCC1CCCCC1 | 15 | -0.2 | -1.4 | -10 | -1.1% | -5
44 | Cc1cc([N+](=O)[O-])nn1CCCC(=O)Nc1sc2c(c1C(N)=O)CCCC2 | -18 | -1.5 | -2.6 | -4 | 4.2% | -4
45 | C=CC[C@H](CC(=O)N(CCO)Cc1ccccc1)C(=O)NCCOC(=O)[C@@H](CC=C)CC(=O)OC(C)(C)C | 3 | 0.1 | 6.8 | 0 | 2.4% | 20
46 | COCCN1Cc2cccc(C(=O)Nc3ccc(S(=O)(=O)N4CCOCC4)cc3)c2C1=O | 21 | 1.0 | 10 | -6 | 2.9% | 9
47 | COc1ccc(/C=C/C(=O)c2ccc(O)cc2)cc1COc1ccc(F)cc1 | 11 | -0.3 | -3.2 | -30 | 1.1%[38.3 µM] | -4
48 | O=C(NCc1ccccc1F)c1cc2ccccn2n1 | 9 | 1.5 | x | x | 1.7% | x
49 | N#Cc1ccc(-c2cccnc2)nc1SCC(=O)c1ccccc1 | 3 | u | -4.1 | -5 | 6.3% | -11
50 | Cn1cc(S(=O)(=O)NCc2ccco2)c(=O)n(C)c1=O | -4 | -0.2 | -0.8 | -1 | -0.9% | 3

Results in D2 PAM and Six1-Eya2 inh (3 entries from above):
cpd | Compound | D2 PAM | Six1-Eya2 inh
18 | Oc1csc(Cc2nc(-c3ccc(-c4ccccc4)cc3)cs2)n1 | -12 | 0
19 | CCOC(=O)C1=CN(Cc2cccc(F)c2)S(=O)(=O)NC1c1cccc(OC)c1 (configuration not stated) | x | 1
20 | COc1ccc(C(=O)CSc2nc(=O)n(Cc3cccnc3)c3c2CCC3)cc1 | -6 | 0

New compounds follow.
# | SMILES | TRPML1 blocker | TRPML1 agonist | D2 agonist | D2 PAM | PINK1 expr mod | Six1-Eya2 inh
51 | CC1CN(C(=O)COC(=O)c2ccc(Cl)c(N)c2)CC(C)O1 (configuration not stated) | -4 | -0.6 | -1.0 | -9 | 0.3% | -6
52 | CC(C)Cn1c(N)c(C(=O)COC(=O)C2CC(=O)N(c3ccc4c(c3)OCCO4)C2)c(=O)n(C)c1=O (configuration not stated) | 16 | -0.6 | -0.2 | u | -0.1% | -4
53 | O=C(NCCN1C(=O)C2C3C=CC(C3)C2C1=O)N1CCOCC1 (configuration not stated) | -3 | -0.2 | -1.8 | -6 | 3.5% | 5
54 | Fc1cccc(F)c1/C=N/Nc1ccccn1 | 20 | 2.4 | -8.3 | -13 | 2.0% | -4
55 | Cc1ccc(NC(=O)CSc2nnc([C@H](C)NC(=O)OC(C)(C)C)o2)c(C)c1 | 39 | 1.0 | 1.9 | -6 | 0.4% | 7
56 | CCN(CC)c1ccc(NC(=O)COc2ccccc2C)cc1S(=O)(=O)Nc1ccccc1OC | 15 | 1.8 | 2.1 | -16 | 3.1% | 2
57 | Cc1cc(OC(C)C(=O)NCc2cccnc2)c2c(C)c(C)c(=O)oc2c1 (configuration not stated) | 13 | 1.9 | -1.6 | -11 | 8.6% | 4

Single records, as listed above. Values in the order: TRPML1 blocker | TRPML1 agonist | D2 agonist | D2 PAM | PINK1 expr mod | Six1-Eya2 inh
`Cc1cc(OC(C)C(=O)NCc2cccnc2)c2c(C)c(C)c(=O)oc2c1` (configuration not stated) in the list: 13 | 1.9 | -1.6 | -11 | 8.6% | 4
`Fc1cccc(F)c1/C=N/Nc1ccccn1` in the list: 20 | 2.4 | -8.3 | -13 | 2.0% | -4
`CC1CN(C(=O)COC(=O)c2ccc(Cl)c(N)c2)CC(C)O1` (configuration not stated) in the list: -4 | -0.6 | -1.0 | -9 | 0.3% | -6
`CCN(CC)c1ccc(NC(=O)COc2ccccc2C)cc1S(=O)(=O)Nc1ccccc1OC` in the list: 15 | 1.8 | 2.1 | -16 | 3.1% | 2
`O=C(NCCN1C(=O)C2C3C=CC(C3)C2C1=O)N1CCOCC1` (configuration not stated) in the list: -3 | -0.2 | -1.8 | -6 | 3.5% | 5
